ClpP mod = qHTS Assay for Activators of ClpP; ATP-dependent Clp protease proteolytic subunit (Bacillus subtilis (strain 168)), P80244; purified B. subtilis ClpP, FRET peptide cleavage, 20 min; Potency, µM (top dose mostly 57.5 µM), for the others: top-dose activity change, negative = active; 1.9% of 340,000 active; AID 651965, 2013; active = well fitted falling curve with a large enough effect; inconclusive = small, poorly fitted or top-dose-only effect; inactive = no such curve, though single readings can be large or run the other way; further: potency means the concentration at half of the fitted maximal effect; the source files actives as falling curves though it sought activators and does not explain the sign; nearly all actives have a fitted effect of over 65% in size; many hits overshoot -100%
Target sequence (P80244 whole entry, looked up): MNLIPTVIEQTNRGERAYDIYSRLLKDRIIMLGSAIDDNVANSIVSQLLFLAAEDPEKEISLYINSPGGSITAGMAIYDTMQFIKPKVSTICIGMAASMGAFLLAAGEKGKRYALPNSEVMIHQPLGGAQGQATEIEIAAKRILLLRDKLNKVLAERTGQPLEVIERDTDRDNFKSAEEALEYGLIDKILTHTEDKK
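FRET quenching reversal measured ClpP activation: 10 microg/mL B. subtilis ClpP at pH 8 with the FRET-FV decapeptide, read at 430 nm after 320 nm excitation. The 20-min minus 0-min signal was scaled between DMSO/no-enzyme wells and ADEP (5.8 microM final).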
TRPV1 potentiator = human TRPV1 potentiation | TRPV1-expressing cells, Fluo-8 calcium influx, capsaicin EC20 potentiation; host cell line not named in the record; control for the full effect not named in the record | Q8NER1 | AID 540277 | 0.02% of 320,000 active | potentiation, % at 8.33 µM; active means potentiation above 80%; inconclusive means 30% to 80%; inactive means below 30%; further: 0% is about no effect
Target sequence (Q8NER1 whole entry, looked up): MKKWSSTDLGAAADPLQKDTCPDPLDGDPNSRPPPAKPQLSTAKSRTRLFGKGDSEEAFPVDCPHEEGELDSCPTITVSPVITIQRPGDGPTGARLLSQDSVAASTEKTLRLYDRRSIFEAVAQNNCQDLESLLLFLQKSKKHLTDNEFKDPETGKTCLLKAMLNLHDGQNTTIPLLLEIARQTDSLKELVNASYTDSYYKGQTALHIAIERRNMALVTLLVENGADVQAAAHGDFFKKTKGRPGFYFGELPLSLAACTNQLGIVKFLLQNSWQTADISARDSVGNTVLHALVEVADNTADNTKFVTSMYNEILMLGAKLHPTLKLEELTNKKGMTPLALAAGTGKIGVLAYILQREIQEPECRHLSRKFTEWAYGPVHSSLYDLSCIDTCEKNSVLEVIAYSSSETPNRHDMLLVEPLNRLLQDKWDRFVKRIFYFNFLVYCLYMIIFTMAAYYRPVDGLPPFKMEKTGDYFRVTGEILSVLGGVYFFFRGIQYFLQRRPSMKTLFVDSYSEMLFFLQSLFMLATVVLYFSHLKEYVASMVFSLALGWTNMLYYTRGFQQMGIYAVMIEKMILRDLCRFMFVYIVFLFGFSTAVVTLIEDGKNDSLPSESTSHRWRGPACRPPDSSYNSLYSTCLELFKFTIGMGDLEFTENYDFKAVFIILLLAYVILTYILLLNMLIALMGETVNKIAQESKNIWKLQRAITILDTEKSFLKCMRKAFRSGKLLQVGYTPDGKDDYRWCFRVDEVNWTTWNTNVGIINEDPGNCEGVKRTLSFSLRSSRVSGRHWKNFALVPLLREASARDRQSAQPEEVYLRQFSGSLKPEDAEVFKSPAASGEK
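TRPV1-expressing cells were cultured overnight at 35.5C and loaded with Fluo-8 calcium dye for 40 to 90 min at room temperature. After a 10 s baseline, compound was added and calcium influx was read kinetically for 3 min (ex 480/em 520 nm).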
Sfp inh = Sfp phosphopantetheinyl transferase inhibition; 3.5% of 310,000 active; Q9F4F7; Biochemical Sfp PPTase activity, qHTS; Potency, µM, for inactives: max response, negative = inhibition, hits mostly inhibitors; AID 1490; active means well fitted inhibition curve with a large enough effect; inconclusive means small, poorly fitted or top-dose-only effect, or another doubt; inactive means no such curve, though single readings can be large or run the other way;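 further: the enzyme is Sfp with the accession as filed and its product quenches rhodamine fluorescence; potency means the concentration at half of the fitted maximal effect; 0% = enzyme reaction without inhibitor and -100% = no enzyme wells; top concentration of the series not given in the record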
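With Hepes-Na pH 7.6 buffer containing 10 mM MgCl2, Sfp (15 nM) modified BHQ-2-YbbR (12.5 uM) using rhodamine-CoA (5 uM). Two reads 30 minutes apart at 525/598 nm yielded each well's rate.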
TRPML1 agonist = agonists of human TRPML1 channel | TRPML1-expressing cells, Ca2+ dye fluorescence, FDSS; host cell line not named in the record; reference of the full effect not given here | 0.12% of 410,000 active | activation, % (concentration not given with the values); in the data active = activation above about 50%; inconclusive = about 30% to 50%; inactive = below about 30%; further: 0% is about no effect; the text of the record puts the active cut at 80%
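In this qHTS format, compounds were pin-transferred onto Ca8-dye-loaded TRPML1-DL cells induced with Tet overnight, and intracellular Ca2+ fluorescence was recorded kinetically for 110 s after a 10 s baseline. A subsequent 4uM final 54-4 (EC80) addition followed by a second 110 s read served as the antagonist phase.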
TRPML1 inh = human mucolipin-1 channel inhibition; Q9GZU1; TRPML1-inducible cells, Ca2+ dye fluorescence, FDSS; stronger effect = lower value; inhibition of EC80 agonist-evoked calcium signal; activity change, negative = inhibition, % (no concentration beside the values); 0.02% of 390,000 active; in the data active means activity change below about -50%; inconclusive means about -30% to -50%; inactive means above about -30%;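 further: stimulus is agonist 54-4 at its EC80 concentration; on the % scale 0 is the no-effect control and ±100 the full control effect; compound concentration not given in the record; the text of the record puts the active cut at -80%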
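Tet-induced TRPML1-DL cells loaded with Ca8 no-wash calcium dye were read kinetically on FDSS. Compound addition was followed by EC80 agonist 54-4 (4 uM final); inhibition was read over 110 s.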
PINK1 expr mod = changes PINK1 expression | AID 624263 | 0.2% of 410,000 active | PINK1 immunofluorescence, high-content cytometry, 24 h | Potency, µM (series often up to 76.6 µM), inactives show at the highest dose activation (PINK1 increase), actives largely listed as activators; active = well fitted activation curve with a large enough effect; inconclusive = small, poorly fitted or top-dose-only effect; inactive = flat fitted curve, though single readings scatter; cell line not stated here;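 further: potency means the concentration at half of the fitted maximal effect; % of control where 0% means no effect; nearly all actives have a fitted effect of over 65% in size; a mitochondrial uncoupler was the plate control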
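PINK1 protein level read as immunofluorescence by microplate cytometer in a fixed, stained stable cell line after 24 h exposure to five compound concentrations, with CCCP as control.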
Menin MLL FP FL = inhibitors of human menin-MLL interaction, wild-type MLL peptide; Fluorescence polarization, fluorescein-MLL peptide displacement from menin; FP activity change, % at 61.4 µM; 290,000 tested, under 10 active; AID 1766; inconclusive = falling polarisation curve, or a change in total fluorescence; inactive = total fluorescence flat and polarisation flat or rising; no compound was filed as active; the % refers to the polarisation; negative = inhibition;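 further: % of control where 0% means no effect; inhibitors lower the polarisation; unlabelled MLL peptide was the positive control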
* = called active by the depositor; ? = inconclusive; nt = no result given; & = joins results of further samples; [ ] = dose if it differs, or a comment.

SMILES	ClpP mod	TRPV1 potentiator	Sfp inh	TRPML1 agonist	TRPML1 inh	PINK1 expr mod	Menin MLL FP FL
CC1CC(Nc2ccccc2)c2ccccc2N1C(=O)c1ccncc1 (configuration not stated)	1.1%	23	14%	-0.1	-11	-2.5%	-3.2
COCCN1Cc2c(sc(C)c2C)N(C(=O)c2ccccc2)C1	0.9%	-13	13%	0.0	-1	0.3%	-0.6
COc1cc(C2C(C(=O)c3cc4ccccc4o3)=C(O)C(=O)N2c2cc(C)on2)cc(OC)c1OC (configuration not stated)	1.8%	6	-8%	-0.3	3	?	-0.9
COc1ccc(Cl)cc1NC(=O)CC1CCCC1	nt	-16	-2%	0.8	6	0.9%	0.5
CCCn1c(C)cs/c1=N\C(=S)Nc1ccccc1	-15%	-15	10%	-0.7	-5	2.3%	nt
O=C(O/N=C1/CCCc2occc21)c1ccc(Cl)cc1Cl	nt	-2	-1%	-1.1	27	2.6%	0.0
Cn1c(=O)c2[nH]c(N3CCCCC3)nc2n(C)c1=O	nt	9	2%	60*	-4	3.8%	-23
CC(C)(C)c1ccc(C(=O)c2c[nH]c(C(=O)NCCCN3CCOCC3)c2)cc1	0.1%	18	1%	-0.3	1	1.8%[38.3 µM]	1.3
Cc1ccccc1Cn1ccc(NC(=O)CCSc2nc(-c3ccco3)cc(C(F)(F)F)n2)n1	28µM*	5	13%	1.6	13	-1.0%	2.0
Cc1ccc(NC(=O)c2c(F)cccc2Cl)cc1NS(C)(=O)=O	0.3%	?	13%	0.0	-12	1.8%	5.5
N#C/C(=C/c1ccc(-c2ccc(S(N)(=O)=O)cc2)o1)C(=O)Nc1ccccc1	-2.3%	11	-9%	1.0	-17	18%	7.7
COc1ccc(OC)c(S(=O)(=O)N(C)CC(=O)O)c1	42%	11	15%	2.6	23	4.0%	2.8
CC(=O)Nc1ccc(C(=O)NNC(=O)c2cccc(C)c2)cc1	0.9%	6	-13%	0.6	4	0.0%	0.1
NC(=O)C1CCN(C(=O)CSc2ccccn2)CC1	-0.1%	-1	13%	0.7	4	?	1.0
CSc1nc2sc3c(c2c(=O)[nH]1)CCCC3	-5.1%	-6	13%	0.5	-14	-1.7%	-3.3
CC(=O)NS(=O)(=O)c1ccc(N/C(N)=N/c2nc(C)cc(C)n2)cc1	1.5%	0	6%	-0.2	-11	1.8%	-5.3
CC(C)(C)NC(=O)NC(=O)CN1CCN(S(=O)(=O)c2ccc3c(c2)OCCO3)CC1	0.7%	-18	12%	-0.1	6	0.2%	-0.2
COc1ccccc1NC(=O)C1=C(C)NC(=O)NC1c1ccccc1F (configuration not stated)	0.9%	14	6%	-1.1	-2	0.8%	-0.5
Cc1ccc(C(=O)Nc2ccc(N3CCCC3)cc2)cc1	nt	-1	-7%	-0.7	17	1.0%	-3.6
O=C(Nc1nc(-c2nc3ccccc3s2)cs1)c1ccco1	-0.8%	-1	-24%	-0.8	-3	2.0%	5.1
COc1cc(-c2nc(-c3ccc(C)nc3OC)no2)cc(OC)c1OC	nt	4	12%	nt	nt	nt	1.5
N#CC1=C(N)Oc2cc(N)ccc2C1C1CCCCC1 (configuration not stated)	-4.8%	1	9%	1.0	-1	4.6%	2.5
CCOC(=O)C(C)n1nc(-c2ccccc2)c2ccccc2c1=O (configuration not stated)	nt	-12	6%	0.8	-7	0.3%	0.2
CCOc1ccc(CCNC(=O)COC(=O)c2nc3nc(C)cc(C)n3n2)cc1OCC	-4.4%	1	11%	-0.9	17	0.5%	0.8
Cc1cc(C)cc(NC(=O)c2ccc(NC(=O)c3ccco3)cc2)c1	-0.2%	2	10%	0.6	7	5.3%	3.1
O=c1c2c3nc4ccccc4nc3n(/N=C/c3ccccn3)c2ncn1-c1ccccc1	nt	3	6%	0.0	-4	1.1%	0.7
O=C(Nc1ccc(-c2nc3ccccc3o2)c(O)c1)c1cc(-n2cnnc2)ccc1Cl	-22%	25	13%	0.3	5	9.2%	1.8
CC(C)(C#N)C(C)(C)c1nn[nH]n1	-5.5%	-5	10%	-0.1	-5	4.0%[38.3 µM]	2.7
CCCC(c1nnnn1C(C)(C)C)N1CCN(c2ccccc2)CC1 (configuration not stated)	nt	-13	7%	2.2	-12	-0.3%	2.8
CCOc1ccc(CCNC(=O)CS(=O)Cc2nc(-c3ccc(C)cc3)oc2C)cc1 (configuration not stated)	-4.8%	?	-3%	1.3	3	-0.2%	nt

4 of the entries above in order of the Menin MLL FP FL value, rising.
| SMILES | Menin MLL FP FL |
| --- | --- |
| CCOC(=O)C(C)n1nc(-c2ccccc2)c2ccccc2c1=O (configuration not stated) | 0.2 |
| O=c1c2c3nc4ccccc4nc3n(/N=C/c3ccccn3)c2ncn1-c1ccccc1 | 0.7 |
| N#CC1=C(N)Oc2cc(N)ccc2C1C1CCCCC1 (configuration not stated) | 2.5 |
| CC(C)(C#N)C(C)(C)c1nn[nH]n1 | 2.7 |

Remaining list, next part
SMILES	ClpP mod	TRPV1 potentiator	Sfp inh	TRPML1 agonist	TRPML1 inh	PINK1 expr mod	Menin MLL FP FL
Cc1cc(C)c2c(CN3CCN(Cc4ccccc4)CC3)cc(=O)oc2c1	0.1%	-5	-18%	3.1	-12	1.7%	1.7
O=S(=O)(c1ccc(NC(=S)NC2CC2)cc1)N1CCOCC1	nt	5	-18%	-0.4	1	1.7%	2.8
O=C(Cn1c(=O)n(Cc2ccco2)c(=O)c2cc(Cl)ccc21)NCC1CCCO1 (configuration not stated)	-2.3%	-11	40µM*	-0.2	6	1.4%	-0.1
CC(=O)NC1(c2nnnn2CCOC(=O)Nc2ccc(Cl)cc2)CCCC1	nt	1	-19%	0.4	-4	2.7%	0.2
CN1CCN(c2ncc(CN3C(=O)c4ccccc4C3=O)s2)CC1	nt	?	10%	-0.2	1	1.7%	2.7
CCOc1ccc(CCNC(=O)C2CCN(c3nnc(-n4cccc4)s3)CC2)cc1	-3.5%	5	-13%	-0.8	14	-0.5%	-1.4
S=C(Nc1cccc(Cl)c1)N1CCN(Cc2ccccc2)CC1	0.9%	-8	15%	-0.2	-2	0.7%	3.7
CN(C)c1ncc2ncc(=O)n(Cc3ccc(F)cc3)c2n1	nt	nt	7%	nt	nt	-0.6%	10
Cc1ccc(N/N=C(\C#N)C(=N)N2CCCCC2)cc1	nt	-20	6%	0.8	-2	-0.4%	0.5
C(=N\N1CCN(c2ccccn2)CC1)/c1ccccn1	-1.0%	0	-6%	-0.6	5	-1.3%	-2.1

Pulled by structure from above (2):
SMILES	ClpP mod	TRPV1 potentiator	Sfp inh	TRPML1 agonist	TRPML1 inh	PINK1 expr mod	Menin MLL FP FL
CC(=O)NC1(c2nnnn2CCOC(=O)Nc2ccc(Cl)cc2)CCCC1	nt	1	-19%	0.4	-4	2.7%	0.2
CN(C)c1ncc2ncc(=O)n(Cc3ccc(F)cc3)c2n1	nt	nt	7%	nt	nt	-0.6%	10

Additional entries follow:
SMILES	ClpP mod	TRPV1 potentiator	Sfp inh	TRPML1 agonist	TRPML1 inh	PINK1 expr mod	Menin MLL FP FL
COc1cc(N/C(N)=N/c2nc(C)cc(C)n2)cc(OC)c1	-2.1%	-1	12%	1.4	12	8.8%	2.4
Cc1ccc(-c2ccc(/C=N/NC(=O)c3ccccc3O)o2)cc1	nt	-12	10%	nt	nt	nt	5.9
Cc1ccc2nc(CCc3ccc(N)cc3)[nH]c2c1	1.9%	-10	5%	0.3	24	0.9%	0.7
CCn1c(SCC(=O)N2CCOCC2)nc(O)cc1=O	1.1%	-1	7%	-0.3	5	3.2%	0.7
C=CCn1c(SCC(=O)NC2CCCCC2)nnc1-c1sc(N)nc1C	3.7%	-15	15%	2.7	-5	-1.5%	-1.7
CC1=Nc2cc(C(=O)NCCc3ccc(Cl)cc3)ccc2Sc2ccc(C)cc21	-2.0%	nt	nt	1.7	35	0.9%	nt
Cc1ccc(NC(=O)CCN2CCC(C)CC2)cc1	nt	-3	1%	0.4	31	-0.2%	-1.4
N#CC1=C(N)n2c(s/c(=C\c3cccs3)c2=O)=C(C#N)C1c1cccs1 (configuration not stated)	-2.7%	14	45µM*	1.8	-9	?	?
Nc1nc(CCl)nc(N(c2ccccc2)c2ccccc2)n1	nt	-8	7%	1.4	6	-0.3%	2.3
O=C(CSc1cccc[n+]1[O-])Nc1ccc(Br)cc1Br	nt	nt	nt	-0.1	-14	2.2%	nt
O=C(Nc1cc(C(F)(F)F)ccc1-n1cncn1)c1ccc(Cl)cc1	0.0%	-39	-4%	1.4	2	-1.0%	4.7
O=C(NC1CC1)c1ccc2c(c1)N(Cc1ccccc1)CCS2	3.6%	-21	7%	-1.0	11	-0.4%	nt
COc1ccc(C=O)c(-c2c(CCO)sc3ccccc23)c1	1.4%	nt	nt	-0.9	nt	0.7%	nt
CN1/C(=C\C=C2\N=C(c3ccc(F)cc3)OC2=O)C(C)(C)c2ccccc21	-6.5%	15	10%	1.4	0	3.2%	?
COc1ccc(OC)c(S(=O)(=O)Nc2ccc3[nH]c(=O)[nH]c3c2)c1	0.5%&0.7%	20	10%	1.7&-0.5	-7&-2	-1.9%&-1.7%	-2.9
Cc1cccc(C)c1NC(=O)CNC(=O)C12CC3CC(CC(O)(C3)C1)C2	-2.4%	4	nt	0.1	-3	-3.5%	nt
O=C(CSc1ccc2ccccc2c1)Nc1nc2ccccc2[nH]1	-1.1%	?	17%	0.2	-9	1.8%	9.1
Cc1ccc(/C([O-])=C(/C(=S)NCCN2CCOCC2)[n+]2ccccc2)cc1[N+](=O)[O-]	-1.0%	5	20µM*	nt	nt	-0.2%	-7.2
O=C(Cc1ccccc1)NCC(=O)OCC(=O)c1ccc(Cl)c([N+](=O)[O-])c1	-1.1%	-1	6%	-1.5	5	-1.1%	5.7
CCOC(=O)C1C(=O)NC(SCC(N)=O)=C(C#N)C1c1ccccc1OCC (configuration not stated)	-1.2%	1	16µM*	7.8	7	2.3%	?
Cc1ccc(C)c(NC(=O)CSc2n[nH]c(-c3ccncc3)n2)c1	2.0%	-1	5%	2.5	-3	-2.1%	3.3
Cc1nonc1CN(C)C(=O)CC1C(=O)NCCN1Cc1ccccc1F (configuration not stated)	-8.6%	-10	22%	1.3	10	0.3%	nt
Cc1ccc(CN(CC(=O)N/N=C/c2ccccc2[N+](=O)[O-])S(=O)(=O)c2ccc(C)cc2)cc1	-1.7%	-11	18%	1.7	39	-0.1%	0.0
CN(C)S(=O)(=O)c1cccc(NC(=O)COC(=O)c2c[nH]c(=O)[nH]c2=O)c1	nt	-12	1%	0.4	-4	0.5%	-3.2

Screening results deposited in PubChem BioAssay by National Center for Advancing Translational Sciences (NCATS).
